Screening data as filed in PubChem BioAssay.
Bfl-1 A1 inh: caspase 3/7 activation in MEF A1-2A-BIM cells, primary screen, A1 inhibitor project, cell-based, luminescence, HTS; Caspase-Glo 3/7 luminescence, 3 h; percent of clofoctol response, vehicle zero; caspase activation, % (concentration not given with the values); hit rate 0.066% among 330,000; AID 2462, 2010;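 active = over half of replicate activation scores above 10%, or exactly half above 10 with the replicate mean above 10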;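 also: wells of about 30 µL received 50 nL stock; many hits fall short of the cut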
Calb FLC: C. albicans growth inhibition with fluconazole, primary screen, CaCi-2 strain, Alamar Blue fluorescence. AID 1979, 2009. C. albicans CaCi-2 (fluconazole-resistant clinical isolate) + fluconazole, 48 h. growth inhibition, % (test concentration not listed). hit rate 0.57% among 300,000;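 active = most replicates above 75%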;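 also: all wells also contain fluconazole at 8 µg/ml as a sub-toxic cotreatment; 0% = median of DMSO wells and 100% = median of geldanamycin control wells; wells of about 8 µL received 7.5 nL stock; the first replicate is given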
rRNA inh HTS: reduced GFP signal of wild-type E. coli, primary screen, bacterial rRNA inhibitor project, GFP/RFP fluorescence, OD600, single point; GFP signal change (wild-type ribosome), % (concentration not given with the values); hit rate 1.6% among 350,000; E. coli WT GFP vs humanized-ribosome RFP mutants, 24 h; hits give low values; DMSO median 0, no signal -100;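 active = significant combined selectivity score with lowered wild-type GFP, culture density cut under 30%, mutant RFP and density less affected; inactive = any of these conditions unmet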; also: one replicate is shown; some compounds called inactive have numbers as strong as hits
ALR H2O2 inh: inhibitors of human ALR sulfhydryl oxidase, primary screen, biochemical, H2O2 detection, HRP-luminol luminescence, single point. FAD-linked sulfhydryl oxidase ALR (Homo sapiens), P55789. purified ALR, DTT oxidation. inhibition, % (concentration not given with the values). hit rate 3.8% among 290,000;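 active = mean and each replicate at 75% or more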;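 also: stock transfer was 7.5 nL into about 7.5 µL; 0% = neutral wells and 100% = wells with inactivated enzyme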
Beta2AR agonist: beta2AR agonists driving receptor internalization, primary screen, cell-based, FAP fluorogen, flow cytometry; response, % (no concentration beside the values); Beta-2 adrenergic receptor (Homo sapiens), P07550; Am2.2-beta2AR cells; reference of the scale not given here; hit rate 0.43% among 340,000;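 active = response above a set limit, near 3 SD of response in nonfluorescent compounds, cut at about 42% in these data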;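 also: stock transfer was 100 nL into about 11 µL; a reference agonist was the positive control; negative values mostly stem from fluorescent compounds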
LANA-H2A inh: blockers of LANA interaction with H2A/H2B – biochemical, FP readout, HTS, primary screen; Protein LANA1 (Human herpesvirus 8 type P (isolate GK18)), Q9QR71; cell-free LANA-H2A/H2B peptide, fluorescence polarization; inhibition, % (concentration not given with the values); hit rate 0.6% among 320,000; AID 2629, 2010; in the data active = inhibition mostly above about 10%, no sharp cut-off; inactive = mostly below about 6.7%;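 also: stock transfer was 7.5 nL into about 10 µL; 0% = median of vehicle wells and 100% = median of positive control wells; one replicate is shown; the record names a cut of 25% in any replicate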
Target sequence (Q9QR71 whole entry, looked up): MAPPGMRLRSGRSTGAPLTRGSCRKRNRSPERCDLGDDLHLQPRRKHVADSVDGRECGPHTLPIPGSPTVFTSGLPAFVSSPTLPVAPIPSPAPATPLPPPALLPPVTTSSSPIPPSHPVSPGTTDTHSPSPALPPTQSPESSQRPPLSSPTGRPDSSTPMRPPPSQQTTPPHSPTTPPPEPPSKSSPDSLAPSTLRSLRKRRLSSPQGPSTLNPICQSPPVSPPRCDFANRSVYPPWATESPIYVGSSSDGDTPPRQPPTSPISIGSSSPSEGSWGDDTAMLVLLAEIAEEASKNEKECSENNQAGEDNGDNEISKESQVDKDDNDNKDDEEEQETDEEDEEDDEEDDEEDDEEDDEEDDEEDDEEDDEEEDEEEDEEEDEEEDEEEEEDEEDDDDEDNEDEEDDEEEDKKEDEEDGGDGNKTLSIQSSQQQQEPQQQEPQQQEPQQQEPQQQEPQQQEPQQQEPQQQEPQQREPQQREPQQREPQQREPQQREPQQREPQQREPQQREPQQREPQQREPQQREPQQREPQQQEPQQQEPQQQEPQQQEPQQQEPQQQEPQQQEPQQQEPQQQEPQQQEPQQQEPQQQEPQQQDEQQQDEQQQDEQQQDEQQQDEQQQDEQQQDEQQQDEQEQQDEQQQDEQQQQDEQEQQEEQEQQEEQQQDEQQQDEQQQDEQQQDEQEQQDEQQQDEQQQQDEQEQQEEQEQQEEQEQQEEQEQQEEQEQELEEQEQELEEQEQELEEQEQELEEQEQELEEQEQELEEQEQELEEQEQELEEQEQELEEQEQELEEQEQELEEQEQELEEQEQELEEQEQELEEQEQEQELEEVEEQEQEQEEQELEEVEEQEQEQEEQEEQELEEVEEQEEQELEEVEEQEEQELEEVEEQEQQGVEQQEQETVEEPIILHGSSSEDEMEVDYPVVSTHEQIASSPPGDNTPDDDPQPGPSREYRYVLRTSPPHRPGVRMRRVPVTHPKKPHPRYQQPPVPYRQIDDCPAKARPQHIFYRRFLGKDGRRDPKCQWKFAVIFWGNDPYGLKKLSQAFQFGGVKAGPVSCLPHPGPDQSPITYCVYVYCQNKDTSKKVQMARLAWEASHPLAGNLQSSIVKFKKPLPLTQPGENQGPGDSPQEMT
T cruzi inh: inhibitors of intracellular T. cruzi growth, primary screen, luminescence, NIH3T3 host cells. T. cruzi beta-gal in NIH3T3, 90 h. AID 1885, 2009. inhibition, % (no concentration beside the values). hit rate 1.4% among 300,000;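 active = mean inhibition across valid replicates above about 55%, limit read from the data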;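 also: signal also drops with host cell toxicity which is not excluded here; 0% = plate median of DMSO wells and 100% = zero luminescence signal; higher percent means less beta-gal luminescence so fewer parasites; stock transfer was 50 nL into about 50 µL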
Beta cell apopt: inhibitors of cytokine-induced beta cell apoptosis, primary screen, luminescence; INS-1E cytokine-induced death, ATP luminescence, 48 h; percent of positive-control rescue, neutral wells zero; protection from apoptosis, % (concentration not given with the values); hit rate 0.8% among 300,000; AID 435005, 2010;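 active = all replicates at 75% or more, or half of them and the mean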;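 also: 0% = cytokine-treated negative control wells and 100% = positive control rescue; higher means more ATP so stronger rescue from cytokine killing; wells of about 40 µL received 100 nL stock; the first replicate is given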
rRNA inh HTS OD600: recorded beside rRNA inh HTS, whose call it bears; OD600 change, %; measured here: OD600 growth;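 optical density of the mix in the first replicate; 0 = DMSO median and -100 = no signal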
rRNA inh HTS RFP: further read-out of rRNA inh HTS, marked with its call; RFP signal change, %; measured here: RFP humanized mutant strains;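 first replicate; 0 = DMSO median and -100 = no signal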
The depositor's hits bear a star; . = not tested or not shown. The list is partial; count on the stated rates, not on these rows.

molecule | Bfl-1 A1 inh | Calb FLC | rRNA inh HTS | rRNA inh HTS OD600 | rRNA inh HTS RFP | ALR H2O2 inh | Beta2AR agonist | LANA-H2A inh | T cruzi inh | Beta cell apopt
OC1CCCN(c2c3c(nc4cc(-c5cccc(Cl)c5)nn24)CCC3)C1 (centres undefined) | 0.8 | -1.8 | . | . | . | . | -5.4 | 1.1 | 26.6 | .
C=CCN(c1ccccc1)S(=O)(=O)c1cc2c(cc1C)N(C)CCO2 | -0.2 | 1.7 | 9.0 | -16.8 | 5.0 | 97.0* | -2.9 | -2.6 | 49.0 | -7.1
Cc1cccn2c(=O)c3cc(S(=O)(=O)c4ccc(F)cc4)c(=N)n(Cc4ccco4)c3nc12 | 1.0 | 1.0 | -3.7 | -7.5 | 2.2 | -1.5 | -9.0 | 2.4 | 5.8 | 0.1
Cc1ccc(-c2nnn(CC(=O)N(CC3CCCO3)C(C(=O)NC3CCCCC3)c3ccc(F)cc3)n2)o1 (centres undefined) | 0.4 | 27.3 | . | . | . | -16.0 | -15.8 | -3.3 | 5.2 | -6.8
Cc1cccc(NC(=O)c2ccc([N+](=O)[O-])s2)n1 | -1.4 | -1.2 | -58.5 | -78.7 | -20.9 | -23.7 | 10.4 | -0.7 | 64.7* | 10.9
CN1C(CC(=O)Nc2ccc(Br)cc2)c2ccccc2CC1(C)C (centres undefined) | -0.1 | 3.5 | -26.3* | -20.9* | -0.5* | -1.3 | -0.2 | -9.3 | -9.2 | 7.4
COCCCC1CCN(Cc2nc(-c3ccccc3)no2)CC1 | 0.2 | -21.9 | 7.0 | 4.8 | -0.1 | -2.7 | 7.8 | 11.6 | 28.4 | -2.5
O=C1C2C3C=CC(C3)C2C(=O)N1c1ccc2ccccc2c1 (centres undefined) | -0.2 | 3.4 | 5.2 | 6.9 | 0.3 | -7.5 | -0.9 | -2.6 | 0.4 | -2.6
CC(C)CN(C(=O)COC(=O)c1ccc(C#N)cc1)C1CCS(=O)(=O)C1 (centres undefined) | -0.9 | . | 4.4 | 10.0 | -2.2 | -2.5 | -4.9 | -0.1 | . | -2.6
O=C(COc1ccc2c(-c3ccccc3)cc(=O)oc2c1)NCc1ccccn1 | 0.2 | 0.9 | . | . | . | -8.6 | -12.4 | 2.1 | -3.9 | -0.2
Cc1cccc(CSC2=NCCN2C(=O)c2ccc(S(=O)(=O)N(C)C)cc2)c1 | 0.3 | 5.6 | -2.7 | 5.2 | -2.0 | 14.0 | -10.1 | -0.3 | 1.6 | -0.4
COc1cccc(S(=O)(=O)NCc2ccc(C(=O)NCc3ccccn3)cc2)c1 | 0.2 | 11.9 | -7.2 | 0.1 | -5.2 | -11.2 | 5.6 | 1.3 | -5.6 | -6.9

Entries of single compounds, looked up by structure. Values in the order: Bfl-1 A1 inh	Calb FLC	rRNA inh HTS	rRNA inh HTS OD600	rRNA inh HTS RFP	ALR H2O2 inh	Beta2AR agonist	LANA-H2A inh	T cruzi inh	Beta cell apopt
Record of O=C(COc1ccc2c(-c3ccccc3)cc(=O)oc2c1)NCc1ccccn1 : 0.2	0.9	.	.	.	-8.6	-12.4	2.1	-3.9	-0.2
Record of COCCCC1CCN(Cc2nc(-c3ccccc3)no2)CC1 : 0.2	-21.9	7.0	4.8	-0.1	-2.7	7.8	11.6	28.4	-2.5

New compounds follow
molecule | Bfl-1 A1 inh | Calb FLC | rRNA inh HTS | rRNA inh HTS OD600 | rRNA inh HTS RFP | ALR H2O2 inh | Beta2AR agonist | LANA-H2A inh | T cruzi inh | Beta cell apopt
Cc1cc(C(=O)NN=Cc2c(C)[nH]c3ccccc23)c(C)o1 | -0.9 | . | -3.6 | -10.1 | 5.9 | 18.3 | 13.1 | 0.2 | . | 1.0
CC(C)c1ccc(OCC(=O)NNC(=S)NC(=O)c2ccco2)c(Br)c1 | -0.1 | -7.0 | 0.7 | -16.4 | -0.6 | 25.9 | -3.9 | 1.1 | 8.6 | 10.6
CN(C)/C=N/c1nc(-c2ccc3ccccc3c2)cs1 | -5.3 | 4.9 | -29.8 | -27.9 | -5.2 | -1.9 | -16.8 | -7.1 | -9.8 | 1.4
Cc1ccc(C(=O)COc2ccccc2-c2ccccc2)cc1 | 0.8 | 6.4 | . | . | . | -3.1 | 1.3 | -3.8 | 2.6 | -5.6
O=C(C1CCN(S(=O)(=O)N2CCC3(CC2)OCCO3)CC1)N1CCOCC1 | 1.3 | 1.5 | . | . | . | -4.6 | -2.2 | 7.1 | -13.4 | -9.1
CC(=O)Nc1ccc(SCC(=O)Nc2ccccc2Oc2ccccc2)cc1 | -0.3 | -36.4 | . | . | . | 66.4 | -9.1 | 0.2 | -25.1 | -5.3
CN1CCN(Cc2cc(COCc3ccccc3)c3cccnc3c2O)CC1 | -0.2 | 109.5* | . | . | . | . | 28.5 | -2.2 | 77.2* | -1.9
O=C(CCN1C(=O)/C(=C/c2ccccc2F)SC1=S)NCCCN1CCOCC1 | -2.0 | 3.6 | 3.7 | 10.6 | 4.1 | -6.4 | -12.3 | -3.4 | 23.2 | -9.7
COc1ccccc1C1=NOC(Cn2c(NCCCO)nc3c2c(=O)n(C)c(=O)n3C)C1 (centres undefined) | 1.1 | -1.7 | 6.8 | 2.4 | -1.0 | 2.8 | -1.7 | 6.4 | 0.4 | -2.8
COc1ccc(NC(=O)COC(=O)CCNC(=O)c2ccco2)cc1Cl | -0.6 | . | -9.8 | -20.3 | -1.0 | -4.4 | -1.9 | -2.8 | . | -3.7
CC(C)(C)n1nnnc1C(c1cccc(C#N)c1)N1CCCc2ccccc21 (centres undefined) | 0.0 | 31.2 | -10.4 | -12.1 | 3.2 | -1.4 | 3.7 | -2.4 | 26.8 | -7.9
COCCn1c(SCC(=O)N2CC(=O)Nc3ccccc32)nnc1-c1ccoc1C | -0.5 | -11.6 | . | . | . | -4.5 | 4.2 | 2.7 | -3.8 | 2.3
CCn1c(SCC(=O)N/N=C/c2ccccc2OCC(=O)O)nnc1-c1ccc(OC)cc1 | -2.0 | 16.6 | 11.9 | 11.5 | 3.0 | 2.5 | -1.2 | -1.6 | -10.0 | -2.2
COc1ccc(CNC(=O)C(C)n2ccc3cc(S(=O)(=O)N4CCCCCC4)ccc32)cc1 (centres undefined) | -0.3 | -12.6 | 1.9 | -1.2 | -0.4 | -5.8 | 9.8 | -3.4 | 12.0 | .
CCn1c(COc2ccc(=O)n(-c3ccccc3)n2)nnc1SCc1cccc(OC)c1 | 0.7 | 85.3* | . | . | . | -1.6 | -6.1 | 5.2 | 29.7 | -4.5
O=S(=O)(Nc1ccc(-c2ccc(N3CCOCC3)nn2)cc1)c1ccc(Cl)c(Cl)c1 | 0.4 | 22.1 | -28.8 | -44.5 | 7.9 | . | 3.3 | . | 6.6 | 8.2
N/C(=N\OC(=O)COc1ccc2ccccc2c1)c1ccccn1 | -3.3 | -6.9 | . | . | . | -5.2 | -3.9 | -5.9 | -0.5 | -1.7
COc1ccc(S(=O)(=O)NC2CCN(Cc3ccccc3)CC2)cc1NC(C)=O | 0.8 | . | 11.9 | 13.8 | -1.7 | -0.4 | 1.9 | 1.6 | . | -0.4
COc1ccccc1N(CC(=O)Nc1cc(S(=O)(=O)N(C)C)ccc1C)S(=O)(=O)c1cccs1 | 2.4 | . | . | . | . | -0.2 | 5.0 | 1.8 | . | 3.5
CCOC(=O)c1cc(NC(=O)c2cccnc2)ccc1N1CCOCC1 | 0.3 | 3.6 | -6.0 | 1.3 | -3.1 | -3.7 | -1.7 | 1.7 | 3.8 | -9.0
Cc1cc([N+](=O)[O-])ccc1NC(=O)CN1CCN(Cc2ccccc2)CC1 | -0.2 | 3.6 | -4.0 | -0.5 | -1.8 | -1.7 | 6.5 | -18.0 | 21.1 | .
Fc1ccc(NC(=S)NC2CCN(Cc3ccccc3)CC2)cc1 | 1.6 | -20.8 | 14.8 | 16.9 | 1.9 | 8.4 | -0.5 | 2.1 | . | 2.5
CCOc1ccc(NS(=O)(=O)c2ccc(C(=O)N3CCN(C(C)=O)CC3)cc2)cc1 | 0.0 | 8.4 | 5.5 | 10.9 | 1.7 | -0.2 | 14.7 | 3.0 | -5.2 | 11.8
COC(=O)C(C)Sc1ncnc2c1c(-c1ccccc1)cn2-c1ccc(OC)cc1 (centres undefined) | 0.4 | 1.3 | . | . | . | -2.8 | 7.5 | -5.2 | 47.9 | -0.1
CCOc1cc(NS(=O)(=O)c2ccccc2)c(OCC)cc1NC(=O)c1ccco1 | 0.5 | -6.1 | 0.8 | 5.2 | 2.0 | 2.9 | -4.2 | 0.0 | 9.9 | 0.6
O=C1Nc2cc(Cl)c(Cl)cc2N(O)N1c1ccc(Cl)c(Cl)c1 | -0.5 | -14.4 | -9.6 | -12.8 | 1.4 | 61.3 | -7.9 | -1.8 | 0.4 | -6.6
Cc1ccc(C(=O)Cc2ccccc2)o1 | -0.2 | -0.6 | 4.3 | 4.8 | 1.8 | -3.8 | -2.4 | 1.1 | 1.3 | -3.5
CCCC(=O)C1=C(N(C)c2ccccc2)CC(C)(C)C(C(=O)OC)C1=O (centres undefined) | -0.2 | -12.8 | . | . | . | -8.9 | -2.4 | -5.6 | 1.2 | -6.1
Cc1cccc(N2CCN(C(=O)Cn3nc(C)n4cccc4c3=O)CC2C)c1 (centres undefined) | 0.5 | 12.4 | -2.5 | 1.9 | -9.3 | 91.2* | -6.2 | -2.7 | 1.8 | -8.1
COc1ccc(NC(=O)Nc2c[nH]c(=O)[nH]c2=O)cc1 | -0.7 | 2.6 | 7.5 | 8.7 | -0.5 | -7.7 | 3.1 | -1.9 | -3.0 | -1.5
CC(=O)Nc1ccc(N(C)S(C)(=O)=O)cc1 | -0.1 | -1.7 | 7.8 | 20.1 | 4.0 | -3.7 | -3.6 | 7.1 | -28.8 | -2.1
CC(=O)N1CCN(CC(=O)c2ccc(Br)cc2)CC1 | 0.1 | 2.6 | 6.1 | 0.2 | -5.2 | . | 1.3 | 3.9 | -12.2 | -9.1
NC(=O)c1ccc(NC(=O)C2CCCC2)cc1 | 0.8 | 5.1 | 2.0 | 1.5 | -0.4 | -2.1 | 1.6 | -3.5 | -4.9 | -4.1
CC(=O)N[C@H]1[C@H](OCc2ccccc2F)O[C@H](COC(C)=O)[C@@H](OC(C)=O)[C@@H]1OC(C)=O | 0.4 | -6.5 | 10.1 | 9.1 | -0.5 | -3.5 | -3.5 | 3.2 | -2.2 | -2.9
Cc1cc(C)n(-c2nc(NCCO)c3c4c(sc3n2)CCCC4)n1 | 0.7 | -5.1 | . | . | . | -8.5 | -7.3 | 6.2 | -2.7 | 79.7*
COc1cc(/C=N/n2nnnc2N)ccc1O | -0.5 | -11.2 | . | . | . | 99.4* | 5.5 | -1.2 | 2.5 | .
CC(=O)N1CCc2cc(S(=O)(=O)NC(CC(C)C)C(=O)Nc3cc(C)ccn3)ccc21 (centres undefined) | 0.5 | 5.3 | . | . | . | . | -2.1 | -3.3 | -4.2 | -0.7
